# Source: PubChem BioAssay
# Beta cell apopt: inhibitors of cytokine-induced beta cell apoptosis, primary screen, luminescence; 0.8% of 300,000 active; protection from apoptosis, % (no concentration beside the values); INS-1E cytokine-induced death, ATP luminescence, 48 h; percent of positive-control rescue, neutral wells zero; AID 435005, 2010;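 active = all replicates at 75% or more, or half of them and the mean; inconclusive = half reach 75% but not the mean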;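 also: 0% = cytokine-treated negative control wells and 100% = positive control rescue; higher means more ATP so stronger rescue from cytokine killing; wells of about 40 µL received 100 nL stock; the first replicate is given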
# A1 inh: caspase 3/7 activation in MEF A1-2A-BIM cells, primary screen, A1 inhibitor project, cell-based, luminescence, HTS | 0.066% of 330,000 active | AID 2462, 2010 | caspase activation, % (test concentration not listed) | Caspase-Glo 3/7 luminescence, 3 h; percent of clofoctol response, vehicle zero;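 active = over half of replicate activation scores above 10%, or exactly half above 10 with the replicate mean above 10; inconclusive = replicate mean below 10 yet half the replicates above 10; inactive = over half of replicates below 10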;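 also: wells of about 30 µL received 50 nL stock; many hits fall short of the cut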
# ALR H2O2 inh: inhibitors of human ALR sulfhydryl oxidase, primary screen, biochemical, H2O2 detection, HRP-luminol luminescence, single point; FAD-linked sulfhydryl oxidase ALR (Homo sapiens), P55789; inhibition, % (test concentration not listed); purified ALR, DTT oxidation; 3.8% of 290,000 active;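 active = mean and each replicate at 75% or more; inconclusive = only one of the two met; inactive = neither met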;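 also: stock transfer was 7.5 nL into about 7.5 µL; 0% = neutral wells and 100% = wells with inactivated enzyme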
# LANA-H2B inh: blockers of LANA interaction with H2A/H2B – biochemical, FP readout, HTS, primary screen; Protein LANA1 (Human herpesvirus 8 type P (isolate GK18)), Q9QR71; cell-free LANA-H2A/H2B peptide, fluorescence polarization; inhibition, % (no concentration beside the values); 0.6% of 320,000 active; AID 2629, 2010; in the data active = inhibition mostly above about 10%, no sharp cut-off; inactive = mostly below about 6.7%;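 also: stock transfer was 7.5 nL into about 10 µL; 0% = median of vehicle wells and 100% = median of positive control wells; one replicate is shown; the record names a cut of 25% in any replicate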
# Target sequence (Q9QR71 whole entry, looked up): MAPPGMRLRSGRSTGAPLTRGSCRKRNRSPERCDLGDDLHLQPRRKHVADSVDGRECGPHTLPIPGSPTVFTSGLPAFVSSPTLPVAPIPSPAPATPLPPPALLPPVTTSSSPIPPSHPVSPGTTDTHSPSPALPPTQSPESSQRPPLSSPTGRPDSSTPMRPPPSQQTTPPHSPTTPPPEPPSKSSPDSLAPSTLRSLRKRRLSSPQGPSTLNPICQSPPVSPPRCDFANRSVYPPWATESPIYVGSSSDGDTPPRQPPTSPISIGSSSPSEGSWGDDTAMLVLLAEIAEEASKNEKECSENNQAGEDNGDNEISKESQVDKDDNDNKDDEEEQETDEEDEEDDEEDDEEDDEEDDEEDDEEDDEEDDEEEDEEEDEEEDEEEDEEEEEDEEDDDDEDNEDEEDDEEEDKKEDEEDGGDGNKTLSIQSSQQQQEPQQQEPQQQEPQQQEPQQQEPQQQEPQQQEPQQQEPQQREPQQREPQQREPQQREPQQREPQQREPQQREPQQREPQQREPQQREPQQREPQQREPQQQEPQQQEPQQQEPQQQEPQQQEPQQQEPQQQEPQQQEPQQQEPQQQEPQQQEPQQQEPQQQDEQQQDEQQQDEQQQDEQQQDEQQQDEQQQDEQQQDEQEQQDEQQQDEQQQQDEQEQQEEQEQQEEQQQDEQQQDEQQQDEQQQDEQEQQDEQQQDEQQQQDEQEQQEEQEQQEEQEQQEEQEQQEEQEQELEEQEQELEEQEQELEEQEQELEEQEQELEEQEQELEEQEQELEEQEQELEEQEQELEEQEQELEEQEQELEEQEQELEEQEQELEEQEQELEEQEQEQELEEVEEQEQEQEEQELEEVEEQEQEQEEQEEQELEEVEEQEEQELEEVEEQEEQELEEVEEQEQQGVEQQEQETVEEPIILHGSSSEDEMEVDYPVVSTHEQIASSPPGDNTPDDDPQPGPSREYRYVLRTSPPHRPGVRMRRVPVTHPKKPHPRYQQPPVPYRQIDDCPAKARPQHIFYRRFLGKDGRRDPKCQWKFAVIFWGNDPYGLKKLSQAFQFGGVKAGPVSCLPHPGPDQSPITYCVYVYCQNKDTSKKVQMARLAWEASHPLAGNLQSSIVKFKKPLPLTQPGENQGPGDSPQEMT
# B2AR ag: beta2AR agonists driving receptor internalization, primary screen, cell-based, FAP fluorogen, flow cytometry; Beta-2 adrenergic receptor (Homo sapiens), P07550; Am2.2-beta2AR cells; reference of the scale not given here; response, % (no concentration beside the values); 0.43% of 340,000 active; AID 504454, 2011;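 active = response above a set limit, near 3 SD of response in nonfluorescent compounds, cut at about 42% in these data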;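 also: stock transfer was 100 nL into about 11 µL; a reference agonist was the positive control; negative values mostly stem from fluorescent compounds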
# rRNA inh HTS: reduced GFP signal of wild-type E. coli, primary screen, bacterial rRNA inhibitor project, GFP/RFP fluorescence, OD600, single point; GFP signal change (wild-type ribosome), % (test concentration not listed); 1.6% of 350,000 active; AID 720706, 2013; E. coli WT GFP vs humanized-ribosome RFP mutants, 24 h; active compounds read low; DMSO median 0, no signal -100;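 active = significant combined selectivity score with lowered wild-type GFP, culture density cut under 30%, mutant RFP and density less affected; inactive = any of these conditions unmet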; also: one replicate is shown; some compounds called inactive have numbers as strong as hits
# T cruzi repl: inhibitors of intracellular T. cruzi growth, primary screen, luminescence, NIH3T3 host cells | 1.4% of 300,000 active | inhibition, % (concentration not given with the values) | T. cruzi beta-gal in NIH3T3, 90 h;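 active = mean inhibition across valid replicates above about 55%, limit read from the data; inconclusive = mean below that limit but half or more replicates reach it; inactive = mean below it, under half of replicates reach it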;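 also: signal also drops with host cell toxicity which is not excluded here; 0% = plate median of DMSO wells and 100% = zero luminescence signal; higher percent means less beta-gal luminescence so fewer parasites; stock transfer was 50 nL into about 50 µL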
# Calb FLC: C. albicans growth inhibition with fluconazole, primary screen, CaCi-2 strain, Alamar Blue fluorescence | C. albicans CaCi-2 (fluconazole-resistant clinical isolate) + fluconazole, 48 h | growth inhibition, % (test concentration not listed) | 0.57% of 300,000 active | AID 1979, 2009;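 active = most replicates above 75%; inconclusive = exactly half above 75%; inactive = most below 75%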;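 also: all wells also contain fluconazole at 8 µg/ml as a sub-toxic cotreatment; 0% = median of DMSO wells and 100% = median of geldanamycin control wells; wells of about 8 µL received 7.5 nL stock; the first replicate is given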
# rRNA inh HTS OD600: second read-out of rRNA inh HTS, no call of its own (marks repeat the call); OD600 change, %; measured here: OD600 growth;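 optical density of the mix in the first replicate; 0 = DMSO median and -100 = no signal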
# rRNA inh HTS RFP: second read-out of rRNA inh HTS, no call of its own (marks repeat the call); RFP signal change, %; measured here: RFP humanized mutant strains;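 first replicate; 0 = DMSO median and -100 = no signal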
# * hit, by the source's call; ? = inconclusive; . = not tested or not shown; & = joins results of further samples. These rows are one share of the data. The share of hits here may be higher or lower than overall.
SMILES,Beta cell apopt,A1 inh,ALR H2O2 inh,LANA-H2B inh,B2AR ag,rRNA inh HTS,rRNA inh HTS OD600,rRNA inh HTS RFP,T cruzi repl,Calb FLC
Cc1cc(C(F)(F)F)nn1CC(=O)NNC(=S)Nc1ccc(Cl)cc1,1,0.8,7,1.4,1,.,.,.,3,-13
CCN(CC)c1ccc2cc(/C(N)=N/NC(=O)c3cccs3)c(=O)oc2c1,5,-0.3,-3,-0.2,.,.,.,.,6,15
CCC(=O)N1CCc2cc(S(=O)(=O)NC(Cc3ccccc3)C(=O)NC3CCCC3)ccc21 (centres undefined),-4,-1.1,19,0.2,-7,.,.,.,-7,11
CCOc1ccccc1N1CC(C(=O)Nc2ccccc2N2CCCC2)CC1=O (centres undefined),4,0.1,88*,7.2,-1,5,6,2.4,-8,-1
O=C(O)c1ccc(S(=O)(=O)c2ccc(Sc3ccc(C(=O)O)c(C(=O)O)c3)cc2)cc1,1,-0.6,-4,-4.4,-1,13,12,0.2,-7,-19
CCc1nnc(NC(=O)CSc2nnnn2-c2cccc(C(C)=O)c2)s1,-5,0.3,0,-4.4,-1,5,5,-4.6,-8,-5
CC(=O)c1cccc(N(CC(=O)NC2CCCCC2)C(=O)CCC(=O)Nc2nc(C)cs2)c1,-2,0.4,-5,-2.4,5,7,6,-1.2,13,-7
CCOC(=O)c1c(N2CCN(c3ccccc3)CC2)cc(C)nc1C,-5,0.8,97*,0.2,-5,-11,-10,-3.7,-8,2
CCn1c(=S)sc2c(=O)n(CC(=O)Nc3cc(OC)ccc3OC)c(C)nc21,7,-0.3,-3,3.6,6,-4,8,-3.1,6,0
CC1=C(C(=O)NCCCOC(C)C)C2(CCC(C)CC2)OC1=O (centres undefined),-7,-0.9,5,3.2,-9,0,1,-5.5,-8,3
COc1cc(/C(C)=N/Nc2ccc(C(=O)O)cc2)cc(OC)c1OC,-6,0.3,.,-4.0,-8,.,.,.,-6,0
Cn1c(CSCc2ccc(Cl)cc2)n[nH]c1=S,.,-0.7,94*,-0.7,6,-23*,-17*,-2.4*,5,18
Cc1cc(C)c2nc(N3CCC(C(=O)N4CCCC4)CC3)sc2c1,5,0.0,24,-1.8,9,-25*,-19*,-0.7*,19,5
OC[C@H]1O[C@@H](Oc2cc(O)cc(/C=C/c3ccc(O)cc3)c2)[C@H](O)[C@@H](O)[C@@H]1O,-3,-3.0,99*,-0.9,.,.,.,.,-17,.
COc1cccc(OC)c1OCCCNC1CCCC1,-4,0.9,8,2.0,6,-1,3,-1.0,-3,0
CC(OC(=O)c1ccco1)C(=O)Nc1nc(-c2ccccc2)cs1 (centres undefined),-3,-4.9,-8,1.4,-6,-8,-32,-6.8,.,.
CCCCn1c(=O)[nH]c(=O)c2c1nc(-c1ccc(-c3ccc(F)cc3)o1)n2C,-4,0.2,1,-3.7,.,-4,4,-0.1,4,6
Nc1c(C(=O)c2ccc(Cl)cc2)sc2nsc(SCCN3CCOCC3)c12,-5,-0.2,22,-6.8,-249,.,.,.,27,2
C=CCNC(=O)c1c[nH]c2ccc(S(=O)(=O)N(C)c3ccc(OCC)cc3)cc2c1=O,10,-0.8,.,-0.2,13,5,0,-0.1,-5,2
CCOC(=O)C1=C(c2ccccc2)Nc2ncnn2C1c1ccc(O)cc1 (centres undefined),-5,-0.2,-4,-0.9,0,0,2,-0.3,-3,13

# Random excerpt: 7 records from the list
SMILES,Beta cell apopt,A1 inh,ALR H2O2 inh,LANA-H2B inh,B2AR ag,rRNA inh HTS,rRNA inh HTS OD600,rRNA inh HTS RFP,T cruzi repl,Calb FLC
CCn1c(=S)sc2c(=O)n(CC(=O)Nc3cc(OC)ccc3OC)c(C)nc21,7,-0.3,-3,3.6,6,-4,8,-3.1,6,0
C=CCNC(=O)c1c[nH]c2ccc(S(=O)(=O)N(C)c3ccc(OCC)cc3)cc2c1=O,10,-0.8,.,-0.2,13,5,0,-0.1,-5,2
CCOC(=O)c1c(N2CCN(c3ccccc3)CC2)cc(C)nc1C,-5,0.8,97*,0.2,-5,-11,-10,-3.7,-8,2
Nc1c(C(=O)c2ccc(Cl)cc2)sc2nsc(SCCN3CCOCC3)c12,-5,-0.2,22,-6.8,-249,.,.,.,27,2
COc1cccc(OC)c1OCCCNC1CCCC1,-4,0.9,8,2.0,6,-1,3,-1.0,-3,0
CCC(=O)N1CCc2cc(S(=O)(=O)NC(Cc3ccccc3)C(=O)NC3CCCC3)ccc21 (centres undefined),-4,-1.1,19,0.2,-7,.,.,.,-7,11
COc1cc(/C(C)=N/Nc2ccc(C(=O)O)cc2)cc(OC)c1OC,-6,0.3,.,-4.0,-8,.,.,.,-6,0

# (listing goes on)
SMILES,Beta cell apopt,A1 inh,ALR H2O2 inh,LANA-H2B inh,B2AR ag,rRNA inh HTS,rRNA inh HTS OD600,rRNA inh HTS RFP,T cruzi repl,Calb FLC
CC1(C)Cc2c(sc3ncn4c(=S)[nH]nc4c23)CO1,-1,0.3,.,-9.3,-1,10,-1,-5.6,-6,6
COc1cccc(CNC(=O)CC2Sc3ccccc3NC2=O)c1 (centres undefined),-5,-0.2,1,2.5,1,4,-4,-1.9,-17,-4
COc1ccc(S(=O)(=O)Nc2ccccc2OC)cc1NC(=O)c1cc2ccccc2oc1=O,2,-2.3,-6,1.9,-15,.,.,.,-7,-4
O=C(O)/C(=C\c1ccco1)NC(=O)c1cccc2ccccc12,-20,0.6,67,-3.9,2,12,4,2.3,-5,-6
COc1cc(CSc2nnnn2-c2ccc(C)cc2)cc(OC)c1OC,102*,-0.1,-13,4.8,-2,.,.,.,-37,10
COc1ccc(OC)c(C(=O)CC2OC(=O)c3ccccc32)c1 (centres undefined),-5,0.7,6,1.4,8,.,.,.,-3,?
Cc1ccc(C(=O)Oc2ccccc2N2C(=O)C3CCCCC3C2=O)cc1 (centres undefined),-10,-0.1,13,3.9,-1,.,.,.,-26,0
O=C(CCc1nnc(-c2ccc3c(c2)OCO3)o1)N(Cc1ccncc1)CC1CCCO1 (centres undefined),3,0.2,-5,1.8,-3,10,11,1.3,-5,25
O=C(Nc1ccncc1)C1CCC(CNS(=O)(=O)c2cccc3nsnc23)CC1 (centres undefined),1,0.0,2,-0.9,2,-10,-4,-2.9,2,1
COCCCNC(=O)Cn1cc(/C=C(\C#N)C(=O)NC2CCCC2)c2ccccc21,.,0.1,4,1.5,-7,0,8,0.1,4,-8
Cc1ccc(NC(=O)c2c(C)nn(-c3ccccc3)c2Cl)c(C)c1,5,-1.7,-8,-6.7,-8,.,.,.,-1,-4
CC(=O)c1ccc(NC(=O)C2CCCN2S(=O)(=O)c2cccs2)cc1 (centres undefined),-6,0.3,-14,2.0,-9,12,19,5.7,-6,4
c1ccc(-c2nc3ccccc3s2)nc1,-1&1,-8.8&-7.4,1&-5,1.9&-1.1,-8&-3,17,16,1.1,-12&1,-23&-23
CC1(C(=O)N2CCC(CC3CC(c4ccc(Cl)cc4)=NO3)(C(=O)NCC3CCCCC3)CC2)CC1 (centres undefined),-1,0.2,-18,3.4,-5,-7,-24,19,-18,25
CN(C)S(=O)(=O)c1ccc(NC(=O)CN2C(=O)NC3(CCCC3)C2=O)cc1,2,0.3,.,1.8,0,3,10,-2.1,-4,1
Cn1cccc1Cc1nnc(SCC(=O)N2CCc3ccccc32)n1-c1ccc(F)cc1,1,0.6,26,0.6,-4,-3,-7,-0.2,9,5
CCSc1nc2ccccc2n1C(=O)/C=C\c1ccc(OC)c(OC)c1,50,0.1,29,-2.5,51*,.,.,.,-20,15
CCOC(=O)C1=C(COC(=O)COc2ccc(Br)cc2)NC(=O)NC1C (centres undefined),-5,0.6,-5,4.7,-2,12,15,0.0,4,16
Cc1cc(C)cc(C(=O)N2CCN(Cc3ccc4c(c3)OCO4)CC2)c1,.,0.1,-10,-3.1,-3,-6,-5,-1.2,-9,-31
COc1ccc(S(=O)(=O)NC(C)C(=O)Nc2ccccc2)cc1Cl (centres undefined),1,0.1,-5,-15,-10,3,2,-2.2,-6,7
O=C(c1ccccc1)N1CCN(C(=S)NCc2ccco2)CC1,3,0.3,-8,4.2,-5,12,-6,3.4,5,-6
C=C1c2cc3c(cc2NC(=S)N1Cc1ccccc1)OCO3,4,-0.4,12,3.9,1,-27*,0.8*,4.0*,-14,-2
O=C(CN(C(=O)CCC(=O)Nc1ccccn1)c1cccc(F)c1)NCc1ccco1,-3,-0.3,-5,4.9,3,1,6,-2.9,17,5
Cn1nnnc1Sc1ncnc2scc(-c3ccc([N+](=O)[O-])cc3)c12,-7,?,21,-1.1,22,-28,-43,-7.8,.,.
CCOC(=O)n1c(O)c(N=NC(N)=S)c2cc(C)ccc21,-4,-0.6,14,3.5,-1,19,10,-1.6,-3,-7
CCN(CC)CCCNC(=O)CCn1nc(-c2ccc(Cl)cc2)ccc1=O,-7,0.4,-9,-1.3,-5,5,3,0.6,-4,-4
O=C(NCc1ccccc1)C1Cc2ccccc2CN1C(=O)c1ccco1 (centres undefined),1,0.3,11,4.0,1,1,3,-0.8,-17,?
CCOc1cc(/C=N/NC(=O)Cc2ccc(C(F)(F)F)cc2[N+](=O)[O-])ccc1O,1,0.2,9,-0.2,-8,-9,-7,-4.9,1,-16
COCC(=O)Nc1nc2ccc(S(C)(=O)=O)cc2s1,-5,-0.7,-19,-1.3,0,.,.,.,-4,-26
COc1ccc(CN2CCNC(=O)C2CC(=O)N2CCCCO2)c(OC)c1 (centres undefined),-1,0.2,-109,7.7,-1,6,8,2.4,-14,28
CCc1ccc(NC(=O)[C@H](C)NC(=O)C2CCN(C(=O)[C@@H](N)C(C)C)CC2)cc1,0,0.0,-8,-2.8,-5,6,16,4.1,-15,-3
C=CCOn1c(=O)c(-c2ccc(OCC)cc2)[n+]([O-])c2ccccc21,-5,0.6,0,-5.2,-10,2,14,1.8,-1,-1
Cc1cccc(C(C)C)c1NC(=O)C(C)OC(=O)Cc1n[nH]c(=O)c2ccccc12 (centres undefined),3,1.8,-3,8.8,-5,1,18,-0.1,0,-5

# Entries shown so far with a nitro group on carbon (two):
SMILES,Beta cell apopt,A1 inh,ALR H2O2 inh,LANA-H2B inh,B2AR ag,rRNA inh HTS,rRNA inh HTS OD600,rRNA inh HTS RFP,T cruzi repl,Calb FLC
Cn1nnnc1Sc1ncnc2scc(-c3ccc([N+](=O)[O-])cc3)c12,-7,?,21,-1.1,22,-28,-43,-7.8,.,.
CCOc1cc(/C=N/NC(=O)Cc2ccc(C(F)(F)F)cc2[N+](=O)[O-])ccc1O,1,0.2,9,-0.2,-8,-9,-7,-4.9,1,-16
